From PubChem BioAssay
LANA-H2B inh = blockers of LANA interaction with H2A/H2B – biochemical, FP readout, HTS, primary screen. 320,000 compounds, 0.6% hits. AID 2629, 2010. inhibition, % (no concentration beside the values). cell-free LANA-H2A/H2B peptide, fluorescence polarization; in the data active means inhibition mostly above about 10%, no sharp cut-off; inactive means mostly below about 6.7%;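 further: stock transfer was 7.5 nL into about 10 µL; 0% = median of vehicle wells and 100% = median of positive control wells; one replicate is shown; the record names a cut of 25% in any replicate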
Target sequence (Q9QR71 whole entry, looked up): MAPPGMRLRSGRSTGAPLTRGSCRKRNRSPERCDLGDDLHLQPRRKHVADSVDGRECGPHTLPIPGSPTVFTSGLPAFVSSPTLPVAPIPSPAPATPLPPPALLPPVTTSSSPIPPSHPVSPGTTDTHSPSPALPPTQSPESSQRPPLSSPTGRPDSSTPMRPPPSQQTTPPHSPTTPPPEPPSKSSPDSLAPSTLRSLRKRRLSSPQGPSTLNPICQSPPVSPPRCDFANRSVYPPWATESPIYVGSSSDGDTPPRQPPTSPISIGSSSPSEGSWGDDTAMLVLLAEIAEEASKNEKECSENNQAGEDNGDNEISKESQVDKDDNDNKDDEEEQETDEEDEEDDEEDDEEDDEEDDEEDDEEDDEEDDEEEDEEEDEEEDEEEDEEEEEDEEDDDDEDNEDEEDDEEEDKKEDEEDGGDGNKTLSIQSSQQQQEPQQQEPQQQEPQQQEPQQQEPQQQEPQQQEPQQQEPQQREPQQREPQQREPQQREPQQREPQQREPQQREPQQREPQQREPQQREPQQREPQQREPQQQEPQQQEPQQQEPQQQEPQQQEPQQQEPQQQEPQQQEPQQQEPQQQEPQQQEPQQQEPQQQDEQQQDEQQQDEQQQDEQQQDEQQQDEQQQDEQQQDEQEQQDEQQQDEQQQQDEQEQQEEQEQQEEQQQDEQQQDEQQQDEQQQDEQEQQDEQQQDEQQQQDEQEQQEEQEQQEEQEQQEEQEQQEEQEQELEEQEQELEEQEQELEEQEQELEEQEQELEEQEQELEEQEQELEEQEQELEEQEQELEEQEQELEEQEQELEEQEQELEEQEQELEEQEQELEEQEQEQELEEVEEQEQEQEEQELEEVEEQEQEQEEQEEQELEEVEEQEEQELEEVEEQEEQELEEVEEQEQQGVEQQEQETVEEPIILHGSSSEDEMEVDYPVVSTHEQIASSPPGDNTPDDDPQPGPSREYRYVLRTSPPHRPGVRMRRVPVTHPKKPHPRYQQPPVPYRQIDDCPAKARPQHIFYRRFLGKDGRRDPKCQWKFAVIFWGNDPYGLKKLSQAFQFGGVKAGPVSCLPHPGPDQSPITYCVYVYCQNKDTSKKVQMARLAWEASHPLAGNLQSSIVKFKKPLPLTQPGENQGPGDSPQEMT
A1 inh = caspase 3/7 activation in MEF A1-2A-BIM cells, primary screen, A1 inhibitor project, cell-based, luminescence, HTS | Caspase-Glo 3/7 luminescence, 3 h; percent of clofoctol response, vehicle zero | caspase activation, % (concentration not given with the values) | 330,000 compounds, 0.066% hits | AID 2462, 2010;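 active means over half of replicate activation scores above 10%, or exactly half above 10 with the replicate mean above 10; inconclusive means replicate mean below 10 yet half the replicates above 10; inactive means over half of replicates below 10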;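 further: wells of about 30 µL received 50 nL stock; many hits fall short of the cut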
T cruzi repl = inhibitors of intracellular T. cruzi growth, primary screen, luminescence, NIH3T3 host cells. T. cruzi beta-gal in NIH3T3, 90 h. inhibition, % (no concentration beside the values). 300,000 compounds, 1.4% hits. AID 1885, 2009;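 active means mean inhibition across valid replicates above about 55%, limit read from the data; inconclusive means mean below that limit but half or more replicates reach it; inactive means mean below it, under half of replicates reach it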;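 further: signal also drops with host cell toxicity which is not excluded here; 0% = plate median of DMSO wells and 100% = zero luminescence signal; higher percent means less beta-gal luminescence so fewer parasites; stock transfer was 50 nL into about 50 µL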
Calb FLC = C. albicans growth inhibition with fluconazole, primary screen, CaCi-2 strain, Alamar Blue fluorescence; C. albicans CaCi-2 (fluconazole-resistant clinical isolate) + fluconazole, 48 h; growth inhibition, % (concentration not given with the values); 300,000 compounds, 0.57% hits;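 active means most replicates above 75%; inconclusive means exactly half above 75%; inactive means most below 75%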;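 further: all wells also contain fluconazole at 8 µg/ml as a sub-toxic cotreatment; 0% = median of DMSO wells and 100% = median of geldanamycin control wells; wells of about 8 µL received 7.5 nL stock; the first replicate is given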
AF4-AF9 inh = inhibitors of AF4 peptide binding to AF9, primary screen, biochemical, AlphaScreen, biotin-AF4 peptide, FLAG-AF9, single point. inhibition, % at 10 µM. Protein AF-9 (Homo sapiens), P42568. 350,000 compounds, 0.47% hits;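 active means every replicate reaching a set inhibition limit, whatever the replicate mean, cut at about 25% in these data; inconclusive means mean inhibition reaches that limit but some replicates miss it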;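 further: 0% = plate neutral control median and 100% = total signal loss; the record names both 10 and 1 µM as test concentration; the first replicate is given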
RanGTP-Impb inh = inhibitors of RanGTP-importin-beta interaction, primary screen, biochemical, FRET, CFP-Ran, YFP-importin-beta, homogeneous; Ran GTPase (GTP-bound) - importin-beta complex; cell-free CFP-Ran/YFP-importin-beta FRET ratio; inhibition, % (no concentration beside the values); 300,000 compounds, 1.1% hits;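 active means most replicates above 15%; inconclusive means exactly half above 15%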;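 further: 0% = DMSO wells and 100% = Ran loaded with GDP instead of GTP; wells of about 40 µL received 100 nL stock; the first replicate is given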
Vif A3G = inhibitors of Vif binding to APOBEC3G peptide, primary screen, biochemical, TR-FRET, GST-Vif 1-94, biotin-A3G peptide, dose response retest (AID 1117319); one-dose inhibition, %; IC50 in µM for titrated hits; Virion infectivity factor (Human immunodeficiency virus type 1 group M subtype B (isolate …; 260,000 compounds, 0.57% hits; TR-FRET GST-Vif / biotin-A3G peptide binding; higher % means a stronger effect; test concentration not given here; strong numbers were not always called active;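 active means above the screen mean plus three standard deviations and confirmed in dose response; inconclusive means results disagree or hit not tested in dose response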;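 further: Vif residues 1-94 fused to GST binding biotinylated APOBEC3G peptide 110-148; 0% = full assay without inhibitor and 100% = GST in place of GST-Vif; retest series ran down from 100 µM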
Beta cell apopt = inhibitors of cytokine-induced beta cell apoptosis, primary screen, luminescence | INS-1E cytokine-induced death, ATP luminescence, 48 h; percent of positive-control rescue, neutral wells zero | protection from apoptosis, % (no concentration beside the values) | 300,000 compounds, 0.8% hits | AID 435005, 2010;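 active means all replicates at 75% or more, or half of them and the mean; inconclusive means half reach 75% but not the mean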;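 further: 0% = cytokine-treated negative control wells and 100% = positive control rescue; higher means more ATP so stronger rescue from cytokine killing; wells of about 40 µL received 100 nL stock; the first replicate is given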
* hit, by the source's call; ? = inconclusive; . = no result given; & = joins results of further samples.

SMILES | T cruzi repl | Beta cell apopt | A1 inh | RanGTP-Impb inh | LANA-H2B inh | Vif A3G | AF4-AF9 inh | Calb FLC
COc1ccc2c(c1)[C@H]1[C@H](CO2)[C@H](c2ccccc2)[C@]2(C)C(=O)Nc3ccc(F)cc3C(=O)N12 | . | -1 | -0.3 | . | 16 | . | 3.9 | .
CCC(C)n1cnc2c(c1=O)c1nc3ccccc3nc1n2Cc1ccc2c(c1)OCO2 (stereo not given) | 48 | . | . | 3.5 | . | -4% | . | 100*
CCc1ccccc1NC(=O)CSc1nnc([C@@H]2CCCN2C(=O)OC(C)(C)C)o1 | -10 | -3 | -0.2 | 3.4 | 3.6 | 3% | . | 6
O=C(CSc1nc2ccccc2c(=O)[nH]1)N1CCCCCC1 | 14 | -2 | -0.5 | -0.6 | -4.5 | 0% | . | -8
Cc1nc(Nc2ccccc2)c2oc3ccc(Cl)cc3c2n1 | 15 | 13 | 0.5 | -2.2 | -1.8 | -11% | 1.1 | -2
Cc1ccc(S(=O)(=O)NCCc2nnc3ccc(SCC(=O)Nc4nc5ccccc5s4)nn23)cc1 | -5 | -8 | 0.2 | -1.0 | 7.6 | . | . | -7
COc1cc(OC)c(OC)cc1CN1CCN(Cc2ccc(SC)cc2)CC1 | 28 | -6 | 1.7 | 3.0 | 3.4 | 17% | 15 | -7
CSc1ccccc1NC(=O)c1noc2c1CCC2 | -3 | 6 | -1.6 | -4.8 | 1.6 | 18µM* | . | 7
O=S(=O)(NCc1nnc2c(C(F)(F)F)cc(Cl)cn12)c1ccccc1 | -3 | . | -0.4 | 3.8 | -4.2 | -3% | -4.2 | -4
c1ccc(-c2[nH]ncc2-c2nc3ccccc3[nH]2)cc1 | -2 | . | 0.0 | -3.5 | 0.1 | -2% | . | -11
COc1ccc(NC(=O)c2sc(NC(=O)C3CC3)nc2C)cc1 | -6 | -1 | -1.7 | -1.9 | 0.9 | . | -5.7 | 2
NC(=O)CSc1nc(-c2ccccc2Cl)ns1 | -8 | -10 | -3.5 | 4.1 | -2.1 | 32% | . | ?
O=C(NCCCc1ccncc1)C1CCC(=O)N(Cc2cccc(C(F)(F)F)c2)C1 (stereo not given) | -12 | -7 | -0.7 | -5.2 | 3.6 | . | 1.4 | -7
O=C(O)c1ccc(-c2ccccc2C(F)(F)F)o1 | -19 | 1 | 0.0 | -4.7 | 3.5 | -2% | . | 5
Cc1nc2ccccc2c(=O)n1N(c1ccccc1)c1ccccc1 | -13 | -1 | ? | 2.9 | -0.1 | 2% | 1.9 | 13
CCn1c(COc2ccccc2)nnc1SCC(=O)NC1CC1 | -10 | -9 | 0.1 | -1.1 | 1.1 | 8% | -0.7 | 6
Cc1ccc(N2C(=O)CC(Cn3nc(C)cc3C)C2=O)cc1 (stereo not given) | 1 | -3 | 0.4 | -2.8 | 0.1 | 6% | . | -5
CC(=O)Nc1cc(NC(C)=O)cc(C(=O)OCC(=O)N(c2ccccc2)C2CCS(=O)(=O)C2)c1 (stereo not given) | . | 4 | 0.0 | . | -0.9 | 2% | 1.7 | .
Cc1ccc2c(c1)c1nc3ccccc3nc1n2C | 10 | -5 | 1.0 | -30 | 6.8 | . | 0.4 | -1
Cc1nn2c(nc1=O)NNC2(C)C(C)(C)C (stereo not given) | 0 | -17 | -0.2 | -1.2 | -2.5 | 4% | -1.8 | -6
CN(CC(=O)NCc1ccc(Cl)cc1)S(=O)(=O)c1cccs1 | -3 | 1 | -0.4 | 4.2 | -3.7 | . | 0.9 | 13
O=C(Cn1cc([N+](=O)[O-])cn1)NCCc1nc2ccccc2[nH]1 | -4 | -5 | 0.6 | -3.2 | 1.0 | ? | -0.6 | -4
CCOC(=O)C1CCN(Cc2cnc(Oc3ccc(C(C)(C)C)cc3)s2)CC1 | 13 | -1 | 0.4 | -3.6 | -3.8 | 28% | . | -14
CC(=O)C1=C(O)C(=O)N(Cc2ccco2)C1c1ccc2c(c1)OCO2 (stereo not given) | 18 | 0 | -0.1 | -5.2 | 0.9 | ? | -2.7 | 14
O=C(CN1C(=O)CC(c2ccccc2)S(=O)(=O)c2ccccc21)NC1CCCC1 (stereo not given) | 12 | -5 | -1.1 | 0.1 | 3.6 | . | -0.4 | 5
NC(=O)CCS(=O)(=O)c1ccccc1 | -9 | -2 | 0.7 | -0.9 | 6.4 | -6% | . | 2
Cc1ccc2c(CC(=O)NNC(=O)c3ccccc3O)coc2c1 | 3 | 6 | -0.2 | 2.8 | -8.9 | 6% | 1.3 | 23
COc1cccc(CNC(=O)c2ccc(N3CCOCC3)c([N+](=O)[O-])c2)c1 | -9 | -12 | 0.1 | -0.3 | -1.3 | . | 0.2 | -9
Cc1ccc(C(=O)Nc2nc(=O)[nH]s2)cc1 | -14&6 | -5&-2 | 1.0&-0.7 | -5.4&4.8 | -6.0&-2.3 | -12%&-2% | -0.9&-2.5 | -2&-7
O=C(c1ccc2c(c1)N(Cc1ccccc1)C(=O)c1ccccc1S2)N1CCCC1 | 28 | 5 | 1.1 | -3.8 | 4.2 | -1% | 8.5 | 13
COc1ccc(/C=C/C(=O)Nc2cc(F)ccc2C)cc1S(=O)(=O)N1CCOCC1 | -1 | 5 | 0.0 | -3.6 | -0.3 | 3% | -2.3 | 38
CCc1ccc2c(c1)C1(NN=C(c3ccc(C)cc3)S1)C(=O)N2 (stereo not given) | ? | 50 | 0.5 | 1.1 | -7.8 | 10% | . | -10
O=C1CC(N2CCN(c3nc4ccccc4s3)CC2)C(=O)N1Cc1cccs1 (stereo not given) | 24 | -3 | -0.3 | -2.1 | 1.3 | -6% | . | -1
CC1=C(C)Cc2c(OC(=O)c3ccccc3)ccc(OC(=O)c3ccccc3)c2C1 | -18 | -1 | -0.8 | 0.2 | 5.2 | -12% | . | -3
CCOC(=O)Cn1c(=N)n(Cc2ccccc2F)c2ccccc21 | . | 5 | 0.9 | . | -2.5 | 25% | . | .
O=C(Cn1cnc2ccccc21)N/N=C/C(Br)=C/c1ccccc1 | -22 | -7 | 0.0 | -1.5 | -2.3 | -3% | . | 21
O=C(O)c1ccc(Cn2nnc3sc4c(c3c2=O)CCCC4)cc1 | 2 | -1 | -0.9 | -7.9 | -0.9 | 29% | -4.0 | 23
Cc1cccc(-n2c(O)c(C=NC3CCS(=O)(=O)C3)c3ccccc3c2=O)c1C (stereo not given) | -5 | 3 | 0.3 | 0.1 | 0.4 | . | 0.7 | 4
CC1=CC(C)(C)Nc2ccc(OC(=O)c3cccnc3)cc21 | -23 | -6 | -0.1 | -2.6 | 0.0 | 30µM* | . | 41
Cc1ccc(C(=O)c2ccccc2C(=O)OCC(=O)NCC2CCCO2)cc1 (stereo not given) | -1 | -5 | 0.6 | 1.2 | 2.1 | -14% | 0.8 | -7
COc1ccc(CC(NC(C)=O)C(=O)NC2CCN(c3nc(C)cc(C)c3C#N)CC2)cc1OC (stereo not given) | 0 | 3 | 0.1 | -1.8 | 0.8 | -9% | 0.1 | -6
CCCc1ccc(C2C3=C(CC(C)(C)CC3=O)NC3=C2C(=O)c2ccccc23)cc1 (stereo not given) | 45 | 35 | 0.0 | -2.9 | -0.6 | 2% | 8.4 | 105*
COC(=O)c1ccc2c(=O)n(Cc3ccc4c(c3)OCO4)c(=S)[nH]c2c1 | 1 | . | 6.3* | -0.5 | 1.7 | . | -9.4 | -1
O=C1C=C(c2cccc(O)c2)CCC1 | -6 | 0 | 1.0 | 1.5 | 0.3 | . | . | 5
Cc1nc(-c2cccc3ccccc23)ccc1C(=O)O | -11 | -4 | 0.6 | -1.9 | -1.8 | 9% | . | -2
CCN(CC)CCCNCC(=O)Nc1ccc(OC)c(Cl)c1 | 35 | -3 | 0.1 | 2.6 | -1.7 | 12% | . | -2
CCN(CC)S(=O)(=O)c1ccc(N2CCCCC2)c(NC(=O)/C=C/c2cc(OC)c(OC)c(OC)c2)c1 | 13 | . | 0.3 | 3.6 | 8.2 | -8% | 3.0 | 12
COc1ccc2nc(NC(=O)c3sc4nc(C)cc(C)c4c3N)sc2c1 | 48 | 6 | 0.0 | 6.5 | -14 | -9% | -1.2 | -1
Cc1ccc(S(=O)(=O)N2CCOCC2)cc1C(=O)Nc1cccc(S(=O)(=O)N2CCCC2)c1 | 4 | 1 | 1.0 | -0.6 | 4.3 | 3% | 6.7 | 10
Nc1nonc1-n1nnc(C(=O)N/N=C/c2ccccc2F)c1CN1CCc2ccccc21 | -12 | -8 | -1.4 | 2.2 | 1.0 | . | 4.1 | 7
Cc1cc(C)n(CCC(=O)N=Nc2c(O)[nH]c3ccccc23)n1 | 0 | 0 | 0.4 | -0.9 | 2.5 | -9% | . | 4
CC(C)C[C@@H](COc1ccccc1)N1CCN(Cc2ccccc2)CCC1=O | 5 | -4 | 0.5 | 3.4 | -0.9 | . | -15 | -34
O=C(NNc1ccc(-c2csnn2)cc1)c1cc(Cl)cc(Cl)c1 | 28 | 1 | 0.5 | -0.3 | 5.1 | -3% | -2.5 | -25
O=C1/C(=C/c2ccncc2)Oc2cc(OS(=O)(=O)c3ccccc3)ccc21 | 35 | 10 | 0.1 | -6.3 | -2.3 | 25% | 11 | -14
CN(C)C1(CNC(=O)C2CCN(S(=O)(=O)c3c(Cl)cccc3Cl)CC2)CCCCC1 | 0 | -3 | 0.4 | -6.8 | -41 | 0% | 1.4 | 5
Clc1ccc(N2CCN(Cc3ccc(Br)o3)CC2)cc1 | -16 | 5 | 1.0 | -1.5 | -1.9 | . | 1.5 | -6
NC(=O)C1CCN(C(=O)CCNS(=O)(=O)c2cc(Br)cnc2N)CC1 | -12 | -4 | 0.9 | 0.3 | -0.9 | -8% | -2.1 | -3
CC(=O)c1cccc(NC(=O)c2oc(C)nc2C)c1 | -14 | -1 | 0.1 | 4.5 | 0.4 | 12% | . | ?
Cc1cc(N2CCOCC2)nc(SCC(=O)c2ccc(Cl)cc2)n1 | 2 | 1 | 1.1 | -3.6 | 1.1 | 2% | . | 0
Cc1nn(-c2ccccc2)nc1C(=O)Nc1nnc(C(F)(F)F)s1 | -13 | 14 | -0.6 | 1.4 | 1.7 | -2% | -3.4 | 21
O=C1c2ccccc2C(=Nc2ccccc2)C1c1cccc(Br)c1 (stereo not given) | 47 | 11 | -0.2 | -4.0 | -1.1 | 8% | . | -15
CN(NS(=O)(=O)c1ccccc1)c1nc2ccccc2nc1C(F)(F)F | 2 | -2 | 0.1 | 0.4 | 11 | -3% | . | 2
